# Compound activity from PubChem BioAssay.
# VDR inhibitor = Inhibitors of the vitamin D receptor (VDR): qHTS; Potency, µM, for inactives: max response, negative = inhibition, hits mostly inhibitors; 400,000 compounds, 0.93% hits; Vitamin D3 receptor (Homo sapiens), P11473; VDR-SRC2-3 peptide fluorescence polarization, 2 h; active = well fitted inhibition curve with a large enough effect; inconclusive = small, poorly fitted or top-dose-only effect, or another doubt; inactive = no such curve, though single readings can be large or run the other way; also: series mostly up to about 120 µM
# Target sequence (P11473 whole entry, looked up): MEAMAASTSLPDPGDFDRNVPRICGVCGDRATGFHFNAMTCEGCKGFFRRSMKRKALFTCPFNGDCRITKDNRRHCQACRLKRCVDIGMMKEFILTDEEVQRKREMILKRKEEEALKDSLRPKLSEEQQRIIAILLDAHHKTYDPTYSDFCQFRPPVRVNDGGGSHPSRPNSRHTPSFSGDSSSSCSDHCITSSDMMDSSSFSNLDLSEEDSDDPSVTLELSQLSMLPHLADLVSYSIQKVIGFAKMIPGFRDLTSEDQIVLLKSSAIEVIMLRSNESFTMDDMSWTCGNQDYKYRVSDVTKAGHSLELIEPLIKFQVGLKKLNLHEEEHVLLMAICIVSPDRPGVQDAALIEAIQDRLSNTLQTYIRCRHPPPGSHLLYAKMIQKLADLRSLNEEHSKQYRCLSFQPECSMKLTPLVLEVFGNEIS
#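 After 23 nl compound addition and a short centrifugation, plates sat for 2 hours at ambient temperature; polarization of fluorescence then indicated loss of VDR binding to peptide SRC2-3.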
# An asterisk follows results filed as active; ? = inconclusive; & = joins results of further samples. % is scaled to controls: 0 for no effect and ±100 for the full control effect; potency is read from the fitted curve at half-maximal effect.
VDR inhibitor,smiles
-14%,CC12CCC(C(=O)N3CCOCC3)([C@H](Br)C1=O)C2(C)C (some centres not stated)
-4%,COc1ccc(Nc2nc3ccccc3c3nnc(C)n23)cc1Cl
-7%,COC(=O)c1ccc(-c2ccc(/C=N/NC(=O)Cc3nnc(N)s3)o2)cc1
8%,O=C(NCCc1ccc(F)cc1)c1ccc(NS(=O)(=O)c2ccc3[nH]c(=O)[nH]c3c2)cc1
9%,Cc1ccc(NC(=S)NNC(=O)c2ccc(N3CCOCC3)c([N+](=O)[O-])c2)cc1C
15%,Fc1ccc(CNc2ncccn2)cc1
13%,CC1=Nc2ccccc2/C1=C\c1nc(-c2ccc(C(F)(F)F)cc2)oc1O
1%,Oc1ccc(/C=N/N2CCN(C3c4ccccc4-c4ccccc43)CC2)c(O)c1
-7%,CN1CCSc2ccc(C(=O)Nc3cc(F)ccc3F)cc21
7%,O=C(CSc1cccc[n+]1[O-])Nc1ccc(C(F)(F)F)cc1[N+](=O)[O-]
-10%,COc1ccc(OCC(=O)N(C)CC2COc3ccccc3O2)cc1 (configuration not stated)
8%,O=C(NCC(c1cccnc1)N1CCOCC1)C(=O)Nc1cccc(Cl)c1 (configuration not stated)
-6%,CCCCCCCNC(=O)C1(CC2CC(c3cccc(Br)c3)=NO2)CCN(C(=O)C2CCCC2)CC1 (configuration not stated)
-10%,COc1cccc(CNC(=O)CCC2CCCN(C(=O)c3cccc4c(C)c(C)[nH]c34)C2)c1 (configuration not stated)
-12%,N#C/C(=C\c1cccnc1)c1ccc([N+](=O)[O-])cc1
-13%,CCOc1cc(S(=O)(=O)NCCCn2ccnc2)ccc1Cl
-17%,O=CN1CCN(C(=O)c2ccc([N+](=O)[O-])cc2)CC1
3%,COc1ccccc1CNCc1ccc(OC)c(OC)c1OC
-8%,Cc1ccc(C)c2nc3sc(C(=O)O)cc3cc12
-3%,O=C(O)C1C2C=CC(C2)C1C(=O)Nc1cccc(C(=O)N2CCCCC2)c1 (configuration not stated)
-4%,CCCCS(=O)(=O)Nc1ccc2cn[nH]c2c1
-2%,COc1cccc2cc(C(=O)N3CCCCCCC3)c(=O)oc12
-1%,COc1ccc(F)cc1S(=O)(=O)Nc1ccc2c(c1)CCCN2C(=O)c1cccs1
13%,CCSc1nc2c(c(=O)[nH]1)C(c1ccc(C)cc1)C1=C(CCCC1=O)N2 (configuration not stated)
-5%,O=C(NNC(=O)c1cccs1)c1ccc(Cl)c([N+](=O)[O-])c1
-22%,COc1cc(CCCN2C(=S)NC[C@@H]2CCCCN)cc(OC)c1OC
-6%,O=C(NC1CCCCCC1)C(=O)NC1CC1
6%&-4%,CCOC(=O)c1cccnc1SCC(=O)N(CC)c1cccc(C)c1
-1%,Cc1ccccc1C(=O)Nc1cccc(-c2ccc(N3CCOCC3)nn2)c1
-10%,CCOc1ccc(S(=O)(=O)Nc2cccc(C(=O)N(C)CC(=O)Nc3cccc(OC)c3)c2)cc1

# (next part)
VDR inhibitor,smiles
2%,COc1ccc(NC(=O)CC2C(=O)N(c3ccc(F)cc3)C(=O)N2Cc2cccnc2)cc1 (configuration not stated)
-23%,CCOC(=O)c1ccc(N/C=C/C(=O)C(C)(C)C)cc1
-4%,CCNC(=S)NNC(=O)CC(C)C
-14%,COc1ccc2nc(NC(=O)C34CC5CC(CC(NC(C)=O)(C5)C3)C4)sc2c1
-14%,Cn1nc(-c2ccccc2)cc1NC(=O)c1ccc(Cl)cc1
5%,CN(C(=O)COC(=O)c1ccc(Cl)cc1N)C1CCCCC1
-11%,CC(C)NC(=O)C1CCN(C2CCN(C(=O)Cc3ccc4c(c3)OCO4)CC2)CC1
-13%,CN(C)c1ccnc(Oc2ccc(C(C)(C)C)cc2)c1C#N
-7%,Cc1ccc(SCc2c(C(=O)N/N=C/c3cccnc3)nnn2-c2nonc2N)cc1
-11%,CCOc1cc(N2CCOCC2)c(OCC)cc1NC(=O)c1ccc(S(=O)(=O)N2CC(C)OC(C)C2)cc1 (configuration not stated)
-15%,CC12CCCCC1C(C(N)=O)C(=O)O2 (configuration not stated)
-18%,O=C(CCc1c[nH]c2ccccc12)NC(Cc1c[nH]c2ccccc12)C(=O)O (configuration not stated)
-2%,CCCC(=O)c1ccc(OCc2cn(CC(=O)c3ccc(O)cc3)nn2)cc1
-12%,O=C(CN(C1CCCCC1)S(=O)(=O)c1ccc(Br)cc1)NCc1cccnc1
8%,CN(CC(=O)Nc1ccccc1Br)C(=O)c1cc([N+](=O)[O-])ccc1N1CCOCC1
1%,O=C(Cc1cccc(NC(=O)C2CCN(C(=O)C3CCCC3)CC2)c1)Nc1cccc(C(=O)N2CCCCC2)c1
-6%,C/C(=N\Nc1nc(C)cc(C)n1)c1ccc(C)o1
0%,CCC(CC)C(=O)OCC(=O)C1(O)CCC2C3CCC4=CC(=O)CCC4(C)C3C(O)CC21C (configuration not stated)
-19%&7%,COc1ccc(CNC(=O)C2=CC(c3ccc(OC)c(OC)c3)=NS(=O)(=O)N2C)cc1
?,CCN1CCn2c3c(c4cc(Cl)ccc42)CCCC31 (configuration not stated)
-5%,COc1ccc(CN2CCN(c3nc4ccccc4s3)CC2)cc1
-3%,CCOC(=O)c1c(NC(=O)COc2ccccc2F)sc2c1CCCC2
-13%,CC1(C)CC(=O)C(N=Nc2ccc(-c3ccccc3)cc2)=C(O)C1
9%,C1CN(c2nc3nonc3nc2N2C[C@H]3CC[C@H]2C3)CCS1
22%,CCOC(=O)N1CCN(c2nc(-c3ccc(Cl)cc3)cs2)CC1
5%,Cc1ccc(-n2ncc3c2CC(C)(C)CC3NC(=O)CN2CCCC2=O)cc1 (configuration not stated)
-20%,CSc1nnc(SCC(=O)N(C)c2c(N)n(Cc3ccccc3)c(=O)[nH]c2=O)s1
-11%,Cc1ccccc1NC(=O)Cn1nc(-c2ccc(Cl)s2)ccc1=O
20%,CCOc1ccc(NCC2CCOC(C)(C)C2)cc1 (configuration not stated)
22%,O=S(=O)(c1ccc(SCCO)nc1)N1CCOCC1

# (next part)
VDR inhibitor,smiles
12%,Cc1nc2ccc(NC(=O)c3cccs3)cc2s1
-1%,CCOC(=O)c1ccc[n+](CC(=O)Nc2ccccc2OC(F)F)c1
-4%,O=C(Nc1cc(=O)[nH]c2nc(-c3ccc(Cl)cc3)nn12)c1ccccc1
7%,O=C(CN1C(=O)c2ccccc2C1=O)NCC1CCCO1 (configuration not stated)
-1%,Cc1cc(=O)[nH]c2c3ccccc3nn12
-1%,CCc1nc(-c2cc(S(=O)(=O)N3CCN(c4ccccc4OC)CC3)ccc2OC)no1
5%,COCCNC(=O)/C(C#N)=C/C=C/c1ccccc1[N+](=O)[O-]
6%,CCOc1ccccc1NC(=O)CN1CCCCCC1
-7%,COc1ccc(CCN2C(=S)NC3CC2(C)Oc2ccc([N+](=O)[O-])cc23)cc1OC (configuration not stated)
?,Cc1ccccc1N1C(=O)C(Cl)=C(N2CCOCC2)C1=O
1%,Cc1noc(N)c1C1(O)C(=O)Nc2c(Cl)cc(Cl)cc21 (configuration not stated)
2%,COCCNS(=O)(=O)c1cccn1-c1ncc(C(F)(F)F)cc1Cl
6%,COc1ccc(CCNS(=O)(=O)c2ccc3c(c2)OCCO3)cc1OC
-8%,Cc1ccc(C)c(N2CCN(C(=O)CCc3nc(-c4ccccc4Cl)no3)CC2)c1
-9%,COc1cccc(CC(=O)OCC(=O)Nc2nnc(-c3ccccc3)o2)c1
15%,O=S(=O)(Nc1nc2ccccc2nc1-[n+]1ccccc1)c1ccc(Cl)cc1
10%,Cc1ccc(CNC(=O)c2cc3cc(Br)ccc3oc2=N)cc1
16%,CCCCN(C)C(=O)C1CCC(Cn2c(=O)[nH]c3ccsc3c2=O)CC1 (configuration not stated)
-9%,O=S(=O)(NCCc1c[nH]c2ccccc12)c1ccccc1
2%,CC1(C)Oc2ccc3ccc(=O)oc3c2/C(=C/Nc2ccccn2)C1=O
0%,Cn1c(=O)c2c(nc(CN3CCN(c4ccc(F)cc4)CC3)n2CCN2CCOCC2)n(C)c1=O
-2%,Cc1ccc([N+](=O)[O-])cc1NC(=O)CCc1ccccc1
-1%,COC(=O)c1nc(C(=O)OC)c(C(=O)OC)nc1C(=O)OC
-14%,O=C1NC(=NCc2ccccc2)NC1(c1ccccc1)c1ccccc1
?,Nc1nc(SCC(=O)c2cccc([N+](=O)[O-])c2)n[nH]1
19%,CS(=O)(=O)N(CC(=O)Nc1ccccc1C(=O)NCc1ccco1)c1ccccc1F
0%,COC(=O)c1ccc(C(=O)NC2CCCc3c2cnn3-c2ccc(C)c(C)c2)cc1 (configuration not stated)
-6%,Cc1ccc(S(=O)(=O)NCc2ccc(N3CCN(C(=O)OC(C)(C)C)CC3)cc2)cc1
1%,O=S(=O)(NCc1nnc2ccccn12)c1ccc(F)cc1
-2%,Cc1cnc(NC(=O)CSc2nnc(-c3ccccc3)n2Cc2ccccc2)s1

# The results go on:
VDR inhibitor,smiles
-4%,COc1cc(C#Cc2c(-c3cncn3C)n(C)c3ccc(-c4ccc5[nH]ccc5c4)cc23)cc(OC)c1
3%,O=C(Nc1ccc(CCC(=O)N2CCCC2)cc1)c1ncn[nH]1
6%,Cc1ccc(S(=O)(=O)N2CCCCC2CCNC(=O)C(=O)Nc2ccccc2F)cc1 (configuration not stated)
8%,Cc1cc(C)c2c(CN3CCOCC3)cc(=O)oc2c1
-22%,COc1ccc2cc(C3CC(c4ccco4)=NN3S(=O)(=O)c3ccccc3)c(Cl)nc2c1 (configuration not stated)
3%,S=C(NCc1ccco1)Nc1ccc(Cl)cc1
5%,CC1(C)OC(=O)C(=NNc2ccc(O)cc2)C(=O)O1
-8%,Cc1ccc(Cn2c(C3CCCN3c3nc(-c4cc(Cl)c(N)c(Cl)c4)cs3)nc3cc(C(=O)NCCCO)ccc32)cc1 (configuration not stated)
8%,NC(=O)NN=C1C2CCCC1C(c1ccccc1)NC2c1ccccc1 (configuration not stated)
-9%,C1CC(CN2CCOCC2)CN(Cc2nc(CC3CC3)no2)C1 (configuration not stated)
-6%,O=C(Nc1ccncc1)Nc1ccc(Cl)cc1Cl
3%,Cc1ccc(NC(=O)c2ccc(-n3cccn3)c([N+](=O)[O-])c2)cc1C
-6%,Cc1[nH]c2ccccc2c1SCC(=O)N1CCOCC1
-28%,COc1ccc(CN(CCN)C2CC(C)N(C)CC2C)cc1 (configuration not stated)
-6%,O=C(Nc1cnccn1)Nc1cccc(Cl)c1Cl
-9%,CCOc1cc(N2CCOCC2)c(OCC)cc1NC(=O)CC12CC3CC(CC(C3)C1)C2
-16%,O=C(Nc1ncccc1O)c1ccc(C(=O)c2ccccc2)cc1
-1%,COc1ccc(NC(=O)c2cc3c(=O)[nH]c4ccccc4c3n2C)cc1Cl
-10%,COc1ccc(-c2nc(SCC(=O)c3ccc(Br)cc3)n[nH]2)cc1
-6%,Cc1ccc(NC(=O)Nc2cc(-c3ccccc3)nn2C)cc1Cl
2%,COc1ccc2nc3ccccc3nc2c1NC(=O)c1ccc(Cl)cc1
2%,Cc1ccccc1OCc1nnc(SCC(=O)O)n1-c1ccccc1
-11%,CCn1c(SCc2c(Cl)cccc2Cl)nc2nc3c(cc2c1=O)CCCC3
-15%,c1ccc2c(-c3nc4ncccc4o3)cccc2c1
?,CCN(CC)c1ccc(NC(=O)C2CCN(S(=O)(=O)c3ccc4c(c3)oc(=O)n4C)CC2)c(C)c1
-26%,O=C(O/N=C\c1ccc(N2CCOCC2)c([N+](=O)[O-])c1)c1ccc(F)cc1
8%,O=C(Nc1cccc(O)c1)c1ccc(C(=O)c2ccccc2)o1
-16%,COc1ccc(C)cc1NC(=O)CNC(C)C(=O)Nc1cc(Cl)ccc1Cl (configuration not stated)
-7%,COCCn1c(SCC(=O)NC2CC2)nnc1-c1ccc(Cl)cc1
-2%,CCOc1nc(NCc2ccco2)nc(Nc2ccccc2F)n1

# The list goes on, overlapping the part above by three compounds.
VDR inhibitor,smiles
-16%,COc1ccc(C)cc1NC(=O)CNC(C)C(=O)Nc1cc(Cl)ccc1Cl (configuration not stated)
-7%,COCCn1c(SCC(=O)NC2CC2)nnc1-c1ccc(Cl)cc1
-2%,CCOc1nc(NCc2ccco2)nc(Nc2ccccc2F)n1
?,CN(C)c1ccc(N=Nc2ccc(C(=O)O)cc2)cc1
7%,CCOC(=O)C1=C(Nc2ccc(Br)cc2)CC(C)(O)C(C(=O)OCC)C1c1ccccc1 (configuration not stated)
2%,CS(=O)(=O)Oc1ccccc1/C=C1/N=C(c2ccc(F)cc2)OC1=O
2%,Cn1nc([N+](=O)[O-])nc1Oc1ccccc1N
-21%,CCCN1CNc2c(c(=O)[nH]c(=S)n2CCc2ccccc2Cl)C1
-7%,COc1ccccc1/C=C/C=N/NC(=O)c1cccs1
-6%,N#Cc1c2nc3ccccc3nc2n2cc(NC(=O)c3ccc(F)cc3)ccc12

# In the list so far, these have a furan ring, fused or not:
VDR inhibitor,smiles
-7%,COC(=O)c1ccc(-c2ccc(/C=N/NC(=O)Cc3nnc(N)s3)o2)cc1
-6%,C/C(=N\Nc1nc(C)cc(C)n1)c1ccc(C)o1
19%,CS(=O)(=O)N(CC(=O)Nc1ccccc1C(=O)NCc1ccco1)c1ccccc1F
-22%,COc1ccc2cc(C3CC(c4ccco4)=NN3S(=O)(=O)c3ccccc3)c(Cl)nc2c1 (configuration not stated)
3%,S=C(NCc1ccco1)Nc1ccc(Cl)cc1
8%,O=C(Nc1cccc(O)c1)c1ccc(C(=O)c2ccccc2)o1
-2%,CCOc1nc(NCc2ccco2)nc(Nc2ccccc2F)n1

# A portion of the library; the hit share may differ from the screen's.
